Vaccinia stage: blocks a specific stage of Vaccinia orthopoxvirus infection; Vaccinia-infected cells, mCherry/Venus stage reporter fluorescence; hits give low values; some inactives read as strong as hits; activity change (mCherry), % (concentration not given with the values); hit rate 0.01% among 89,000; AID 1053133;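 active means mCherry past -33% and 40 or more points under the early reporter, replicates agreeing; inconclusive means past -33% without that gap or agreement; tested in A549 cells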;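 further: scaled between vehicle wells and reference inhibitor wells; 23 nL library stock went into each well; one replicate is shown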
Vaccinia stage Venus: second read-out of Vaccinia stage, no call of its own (marks repeat the call); activity change (Venus), %; measured here: Venus reporter, other viral stage;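 negative = less Venus signal; first of two replicates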
* marks the source's active call; other numbers are inactive results; ? = inconclusive; nt = not tested or not shown. An excerpt (hit frequency here may not be typical).

SMILES	Vaccinia stage	Vaccinia stage Venus
C[C@@H]1CN([C@H](C)CO)C(=O)c2cc(NC(=O)C3CCCCC3)ccc2O[C@H]1CN(C)S(=O)(=O)c1ccc(Cl)cc1	0	5
C[C@@H]1CCCCO[C@H](CN(C)S(=O)(=O)c2ccccc2)[C@@H](C)CN([C@@H](C)CO)C(=O)c2cc(NC(=O)c3ccccc3)ccc2O1	-27	-13
C[C@@H]1CCCCO[C@@H](CN(C)C(=O)CCCN(C)C)[C@H](C)CN([C@H](C)CO)C(=O)c2cc(NC(=O)Nc3ccccc3)ccc2O1	7	11
CCCC#Cc1ccc([C@@H]2[C@@H](CO)N3C(=O)CN(C(=O)c4ccncc4)C[C@@H]23)cc1	33	13
COCC#Cc1ccc([C@@H]2[C@@H](CO)N3CCCCN(C(=O)COC)C[C@H]23)cc1	34	32
CCC(=O)N[C@H]1C=C[C@@H](CC(=O)NCc2ccc(OC)cc2)O[C@@H]1CO	20	16
CCC(=O)N1CC2(C1)CN(C(=O)Nc1ccccc1F)[C@@H](CO)c1[nH]c3cc(OC)ccc3c12	4	-1
O=C(NCC[C@H]1CC[C@@H](NS(=O)(=O)c2ccc(F)cc2)[C@H](CO)O1)Nc1ccc(F)cc1	7	4
CC(C)NC(=O)N[C@@H]1CC[C@H](CCn2cc(-c3ccccc3)nn2)O[C@@H]1CO	2	6
C[C@@H]1CN([C@H](C)CO)S(=O)(=O)c2ccc(-c3ccc(C#N)cc3)cc2O[C@@H]1CN(C)C	-9	-6
CCCN(C)C[C@@H]1Oc2cc(-c3ccccc3)ccc2S(=O)(=O)N([C@H](C)CO)C[C@@H]1C	9	2
Cc1noc(C)c1NC(=O)N(C)C[C@@H]1Oc2ccc(NS(=O)(=O)c3cccs3)cc2C(=O)N([C@@H](C)CO)C[C@@H]1C	7	2
COc1ccc(NC(=O)N(C)C[C@@H]2Oc3c(NS(=O)(=O)c4ccc(OC)cc4)cccc3C(=O)N([C@H](C)CO)C[C@H]2C)cc1	-7	1
COc1ccc(S(=O)(=O)Nc2ccc3c(c2)C(=O)N([C@H](C)CO)C[C@H](C)[C@H](CN(C)S(=O)(=O)c2c(C)noc2C)OCCCC[C@@H](C)O3)cc1	12	1
COc1ccc2c3c([nH]c2c1)[C@H](CO)N(C(=O)CC1CC1)CC31CN(C(=O)c2ccccc2)C1	6	-10
CN(C)CC#Cc1ccc([C@@H]2[C@H]3CN(C(=O)c4cccc(F)c4)CC(=O)N3[C@H]2CO)cc1	1	-1
CC(C)CC#Cc1ccc([C@@H]2[C@@H](CO)N3CCCCN(C(=O)c4ccc5c(c4)OCO5)C[C@@H]23)cc1	?	nt
C/C=C/c1cnc2c(c1)C(=O)N([C@H](C)CO)C[C@H](C)[C@@H](CN(C)C(=O)NC1CCCCC1)O2	10	4
COCC(=O)N(C)C[C@H]1Oc2cc(C#CCC3CCCC3)ccc2S(=O)(=O)N([C@H](C)CO)C[C@@H]1C	?	nt
CNC(=O)C[C@H]1CC[C@@H]2[C@H](COc3ccc(NC(=O)c4cccc(OC)c4)cc3C(=O)N2C)O1	-2	-5
COc1ccc2c3c(n(C)c2c1)[C@@H](CO)N(C(=O)Cc1ccccc1)CC31CCN(C)CC1	-13	-6
COc1ccc(C#Cc2cnc3c(c2)C(=O)N([C@H](C)CO)C[C@H](C)[C@H](CN(C)Cc2ccncc2)O3)cc1OC	13	6
C[C@@H]1CCCCO[C@@H](CN(C)CC2CCCCC2)[C@H](C)CN([C@@H](C)CO)C(=O)c2cc(NC(=O)c3ccncc3)ccc2O1	22	1
C[C@@H]1CN([C@@H](C)CO)C(=O)c2cccc(NC(=O)Nc3ccc(F)cc3)c2O[C@@H]1CN(C)C	1	-1
C[C@@H]1CN([C@H](C)CO)C(=O)c2cc(NC(=O)c3ccccc3)ccc2O[C@@H](C)CCCCO[C@H]1CN(C)Cc1ccc(C(=O)O)cc1	22	6
O=C(Nc1cccc(Cl)c1)N[C@H]1CC[C@@H](CCn2cc(Cc3ccccc3)nn2)O[C@H]1CO	-8	-8
C[C@@H]1CN([C@H](C)CO)C(=O)c2c(c3ccccc3n2C)-c2ccccc2CO[C@@H]1CN(C)Cc1ccc(Oc2ccccc2)cc1	?	nt
COc1ccc(-c2ccc3c(c2)[C@@H]2[C@@H](CCN2C(=O)c2cccc(F)c2)[C@@H](CO)N3)cc1	6	2
CO[C@H]1CN(C)C(=O)c2ccc(NC(=O)C3CCOCC3)cc2OC[C@@H](C)NC[C@@H]1C	9	8
Cc1ccc(S(=O)(=O)Nc2ccc3c(c2)C(=O)N([C@H](C)CO)C[C@@H](C)[C@@H](CN(C)C(=O)Nc2ccc(C(F)(F)F)cc2)O3)cc1	-4	-9
CCCN(C)C[C@@H]1Oc2ncc(-c3cccc(C#N)c3)cc2C(=O)N([C@@H](C)CO)C[C@H]1C	9	14
C[C@@H]1CN([C@H](C)CO)C(=O)c2cccc(NC(=O)Nc3ccccc3)c2O[C@@H]1CN(C)Cc1ccc(Cl)c(Cl)c1	?	nt
N#C[C@H]1[C@@H](c2ccc(C3=CCCCC3)cc2)[C@@H](CO)N1C(=O)CN1CCOCC1	?	nt
C[C@H]1CN([C@@H](C)CO)C(=O)Cc2cc(NS(=O)(=O)c3ccc(F)cc3)ccc2O[C@@H]1CN(C)Cc1ccccc1	-10	-6
CCCNC(=O)Nc1ccc2c(c1)C(=O)N(C)C[C@H](OC)[C@H](C)CN(CCC)[C@H](C)CO2	12	3
CO[C@@H]1CN(C)C(=O)c2ccc(NC(=O)c3ccc(F)cc3)cc2OC[C@H](C)N(C(=O)CN(C)C)C[C@H]1C	5	5
C[C@@H]1CN([C@H](C)CO)C(=O)Cc2cc(NC(=O)CCC(F)(F)F)ccc2O[C@H]1CN(C)S(=O)(=O)c1cccs1	4	1
CNC[C@H]1Oc2ccc(N(C)C)cc2CC(=O)N([C@H](C)CO)C[C@@H]1C	2	2
Cc1noc(C)c1NC(=O)Nc1ccc2c(c1)C(=O)N([C@H](C)CO)C[C@@H](C)[C@@H](CN(C)C(=O)NC1CCCCC1)O2	4	-3
CC(C)C#Cc1cnc2c(c1)C(=O)N([C@H](C)CO)C[C@H](C)[C@@H](CN(C)Cc1cncnc1)O2	6	2
CCCNC(=O)N1C[C@H](O)COC[C@@H]2O[C@H](CC(=O)N[C@H]3CCN(Cc4ccccc4)C3)CC[C@H]21	1	-1
C[C@H]1CCCCO[C@H](CN(C)C(=O)C2CCCCC2)[C@@H](C)CN([C@@H](C)CO)C(=O)c2cc(NC(=O)Nc3ccc(C(F)(F)F)cc3)ccc2O1	-30	-8
O=C(NCC[C@H]1CC[C@@H](NS(=O)(=O)c2ccc(Cl)cc2)[C@@H](CO)O1)c1ccccc1F	-10	-4
COc1ccc(S(=O)(=O)N(C)C[C@H]2OCCCC[C@@H](C)Oc3ccc(NS(C)(=O)=O)cc3C(=O)N([C@H](C)CO)C[C@H]2C)cc1	-16	-15
COc1ccc(C(=O)Nc2ccc3c(c2)OC[C@@H](C)NC[C@H](C)[C@H](OC)CN(C)C3=O)cc1	-1	5
C[C@@H]1CN([C@H](C)CO)C(=O)c2cccc(N(C)C)c2O[C@@H]1CN(C)Cc1ccc(C(=O)Nc2ccccc2N)cc1	-29	-23
Cc1noc(C)c1S(=O)(=O)N(C)C[C@@H]1Oc2ccc(NC(=O)CCN3CCOCC3)cc2CC(=O)N([C@@H](C)CO)C[C@H]1C	-7	-1
O=C(Cc1ccccn1)N1CC(=O)N2[C@@H](CO)[C@@H](c3ccc(-c4ccc(F)cc4)cc3)[C@@H]2C1	3	4
C[C@@H]1CN([C@@H](C)CO)C(=O)c2cc(NC(=O)c3ccncc3)ccc2O[C@@H]1CN(C)C(=O)Nc1cccc2ccccc12	-20	-15
CO[C@@H]1CN(C)C(=O)c2ccc(NC(C)=O)cc2OC[C@@H](C)N(Cc2cc(F)ccc2F)C[C@H]1C	-12	-28
CCNC(=O)[C@@H]1[C@@H](CO)[C@@H]2Cn3c(ccc(-c4cccc(F)c4)c3=O)[C@@H]2N1Cc1nccs1	11	8
COCC(=O)Nc1ccc2c(c1)C(=O)N(C)[C@H]1CC[C@H](CC(=O)NCc3ccccc3F)O[C@@H]1CO2	0	5
O=C(c1cccc(F)c1)N1CCCCN2[C@H](CO)[C@@H](c3ccc(-c4ccc(F)cc4)cc3)[C@@H]2C1	-33	-27
N#C[C@@H]1[C@@H](c2ccccc2C2=CCCCC2)[C@H](CO)N1C(=O)C1CCOCC1	26	18
CC(C)NC(=O)N[C@@H]1CC[C@@H](CCNC(=O)C2CCCC2)O[C@@H]1CO	9	3
CCNC(=O)C[C@@H]1CC[C@H]2[C@H](COc3ccc(NC(=O)c4ccc(F)cc4)cc3C(=O)N2C)O1	-15	-9
O=C(c1ccc(F)cc1)N1C[C@@H]2[C@H](c3ccccc31)[C@H](CO)N2C(=O)c1ccc(F)cc1	2	-6
O=C(C[C@H]1CC[C@@H]2[C@H](COC[C@@H](O)CN2CC2CCOCC2)O1)NCC1CCCCC1	5	10
CCC(=O)N1C[C@H](C)[C@@H](OC)CN(C)C(=O)c2ccc(NC(=O)NC(C)C)cc2OC[C@H]1C	-4	2
COc1ccc(NC(=O)Nc2cccc3c2O[C@@H](CN(C)Cc2ccccc2)[C@@H](C)CN([C@H](C)CO)C3=O)cc1	-14	-11

2 records drawn at random from the list so far:
SMILES	Vaccinia stage	Vaccinia stage Venus
CC(C)C#Cc1cnc2c(c1)C(=O)N([C@H](C)CO)C[C@H](C)[C@@H](CN(C)Cc1cncnc1)O2	6	2
CCNC(=O)[C@@H]1[C@@H](CO)[C@@H]2Cn3c(ccc(-c4cccc(F)c4)c3=O)[C@@H]2N1Cc1nccs1	11	8

Laid out differently: entries from further up
COc1ccc(NC(=O)Nc2cccc3c2O[C@@H](CN(C)Cc2ccccc2)[C@@H](C)CN([C@H](C)CO)C3=O)cc1
- Vaccinia stage: -14
- Vaccinia stage Venus: -11

CCC(=O)N1C[C@H](C)[C@@H](OC)CN(C)C(=O)c2ccc(NC(=O)NC(C)C)cc2OC[C@H]1C
- Vaccinia stage: -4
- Vaccinia stage Venus: 2

O=C(c1ccc(F)cc1)N1C[C@@H]2[C@H](c3ccccc31)[C@H](CO)N2C(=O)c1ccc(F)cc1
- Vaccinia stage: 2
- Vaccinia stage Venus: -6

CC(C)NC(=O)N[C@@H]1CC[C@@H](CCNC(=O)C2CCCC2)O[C@@H]1CO
- Vaccinia stage: 9
- Vaccinia stage Venus: 3

Remaining list, next part
SMILES	Vaccinia stage	Vaccinia stage Venus
C[C@@H]1CN([C@H](C)CO)C(=O)c2cccc(N(C)C)c2O[C@@H]1CN(C)Cc1ccncc1	8	-6
NC(=O)[C@H]1[C@@H]2C(=O)O[C@@H](c3ccccc3)[C@@H](c3ccccc3)N2[C@@H](c2ccc(O)cc2)[C@]12C(=O)Nc1ccc(C#CC3(O)CCCCCC3)cc12	13	2
CCCC#Cc1ccc([C@@H]2[C@H](CO)N3C(=O)CN(C(=O)c4ccc(F)cc4)C[C@@H]23)cc1	6	-9
CS(=O)(=O)N1[C@@H]2c3ccc(C4=CCCC4)c(=O)n3C[C@@H]2[C@@H](CO)[C@@H]1C(=O)NCCc1ccncc1	10	7
Cc1noc(C)c1NC(=O)N(C)C[C@@H]1OCCCC[C@H](C)Oc2ccc(NC(=O)C3CCCCC3)cc2C(=O)N([C@H](C)CO)C[C@@H]1C	13	1
C[C@@H]1CN([C@H](C)CO)C(=O)Cc2cc(NC(=O)Cc3cn(C)c4ccccc34)ccc2O[C@@H]1CN(C)Cc1ccncc1	5	-2
C[C@H]1CN([C@@H](C)CO)C(=O)c2ccccc2-c2ccccc2CO[C@H]1CN(C)C(=O)[C@H]1CCCN1C	9	7
C[C@H](CO)N1C[C@H](C)[C@@H](CN(C)C(=O)Nc2cccc3ccccc23)OCCCC[C@H](C)Oc2ccc(NC(=O)c3ccccc3)cc2C1=O	12	20
COCc1cn(CC[C@H]2CC[C@@H](NC(=O)c3ccc(F)cc3)[C@H](CO)O2)nn1	0	6
COc1ccc(S(=O)(=O)N(C)C[C@@H]2Oc3cc(C#CC4CCCCC4)ccc3S(=O)(=O)N([C@@H](C)CO)C[C@H]2C)cc1	-6	-15
O=C(C[C@H]1C[C@@H]2c3cc(NS(=O)(=O)c4ccc(F)cc4)ccc3O[C@@H]2[C@H](CO)O1)NCCN1CCCCC1	-3	1
CNC[C@@H]1Oc2c(NC(=O)C3CCOCC3)cccc2C(=O)N([C@H](C)CO)C[C@H]1C	-2	0
O=C(C[C@H]1C=C[C@H](NC(=O)C2CCC2)[C@@H](CO)O1)NCC1CC1	9	-3
CCCNC(=O)N[C@@H]1CC[C@@H](CC(=O)N2CCN(C)CC2)O[C@H]1CO	11	2
CCC(=O)N(C)C[C@H]1Oc2cc(C#C[C@H](C)O)ccc2S(=O)(=O)N([C@H](C)CO)C[C@@H]1C	14	26
C[C@@H]1CCCCO[C@H](CN(C)S(C)(=O)=O)[C@@H](C)CN([C@H](C)CO)C(=O)c2cc(NC(=O)C3CCCCC3)ccc2O1	7	11

Source: PubChem (Broad Institute)
